Compound activity as filed in PubChem.
DUX4 inh: DUX4-mediated transcription inhibition. AID 1224904. 293T-iDUX4 ZSCAN4-Gaussia luciferase reporter, 24 h; stronger effect = lower value. 0.8% of 37,000 active. activity change, negative = inhibition, % (test concentration not listed);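 active = -10% or lower and over 25 points stronger than a control reporter; inconclusive = -10% or lower with a smaller gap; inactive = above -10%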;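 also: 0% = median of neutral control wells and -100% = median of positive control wells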
DUX4 inh difference: second read-out of DUX4 inh, no call of its own (marks repeat the call); Gaussia minus Italica difference, %; measured here: selective DUX4 reporter inhibition;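 worked out from the two reporters; negative = selective loss of the DUX4 reporter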
DUX4 inh control: further read-out of DUX4 inh, marked with its call; activity change, negative = inhibition, %; measured here: Italica tet-on control reporter;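 0 = neutral control and -100 = positive control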
* = called active by the depositor; ? = inconclusive; nt = no result given. The list is partial; the hit share may differ from the screen's.

SMILES	DUX4 inh	DUX4 inh difference	DUX4 inh control
CC=Cc1ccc2n(c1=O)C[C@H]1[C@H](CO)[C@@H](C(=O)N3CCOCC3)N(Cc3ccccc3OC)[C@@H]21 (mixture of isomers)	-1	0	-0.5
O=S(=O)(c1ccccc1)N1CC[C@@H]2[C@H](CO)Nc3ccc(Br)cc3[C@@H]21	5	4	1.0
C[C@@H](NC(=O)[C@H]1[C@H](CO)[C@H]2Cn3c(cccc3=O)[C@@H]1N2C(=O)C1CC1)c1ccccc1	11	-1	12
O=C(C[C@H]1CC[C@@H]2[C@H](COC[C@@H](O)CN2Cc2nccs2)O1)NCc1ccc(Oc2ccccc2)cc1	?	nt	nt
CCNC(=O)[C@H]1[C@H](CO)[C@H]2Cn3c(cccc3=O)[C@@H]1N2C(=O)c1ccc(F)cc1	-1	0	-0.6
C[C@@H]1CN([C@@H](C)CO)C(=O)c2c(c3ccccc3n2C)-c2ccccc2CO[C@@H]1CN(C)C	-7	-6	-0.2
C[C@H](CO)N1C[C@H](C)[C@H](CN(C)Cc2ccc3c(c2)OCO3)Oc2c(NS(=O)(=O)c3cccs3)cccc2C1=O	1	-2	3.0
CC(C)COC(=O)N(C)C[C@H]1OCc2ccccc2-c2ccccc2C(=O)N([C@H](C)CO)C[C@H]1C	6	-5	11
CO[C@H]1CC[C@@H]2CCOc3c(C#N)cccc3C(=O)N(C)C[C@@H](OC)[C@H](C)C(=O)N(C)C[C@H]1O2	0	2	-2.1
C[C@@H]1CN([C@@H](C)CO)C(=O)c2cc(-c3ccncc3)cnc2O[C@H]1CN(C)S(=O)(=O)c1ccccc1	3	4	-1.1
O=C(C[C@H]1CC[C@H]2[C@@H](COC[C@@H](O)CN2C(=O)c2cnccn2)O1)N1CCN(c2ccccc2)CC1	-1	3	-3.6
O=C(C[C@@H]1CC[C@@H]2[C@H](COC[C@H](O)CN2C(=O)c2ccccc2F)O1)NCc1ccc(-c2ccccc2)cc1	-6	3	-9.1
C[C@@H]1CCCCO[C@H](CN(C)Cc2ccc3c(c2)OCO3)[C@@H](C)CN([C@@H](C)CO)C(=O)c2cc(NC(=O)CCC(F)(F)F)ccc2O1	2	-4	6.1
CN1C[C@H](O)COC[C@@H]2O[C@H](CC(=O)NC3CCCC3)CC[C@H]21	5	10	-4.8
CCCC(=O)N1CC2(CCN(C)CC2)c2c(n(C)c3cc(OC)ccc23)[C@@H]1CO	13	7	6.0
C[C@H]1CN([C@@H](C)CO)C(=O)c2cc(NC(=O)NC3CCCCC3)ccc2O[C@@H]1CN(C)Cc1ccncc1	-1	4	-5.5
O=C(c1ccccc1)N1[C@H](CO)[C@H](c2ccccc2)C12CN(Cc1nccs1)C2	4	0	3.7
O=C(Nc1ccccc1F)N[C@@H]1CC[C@@H](CCNC(=O)C2CC2)O[C@@H]1CO	-2	-1	-1.0
CCC(=O)N1C[C@H]2[C@@H](c3ccccc31)[C@H](CO)N2C(=O)CC	0	0	-0.3
C[C@@H]1CN([C@@H](C)CO)C(=O)CCCn2nncc2CO[C@H]1CN(C)S(=O)(=O)c1ccc2ccccc2c1	-6	-8	2.2

Nothing new here: an excerpt of the list.
SMILES	DUX4 inh	DUX4 inh difference	DUX4 inh control
CC=Cc1ccc2n(c1=O)C[C@H]1[C@H](CO)[C@@H](C(=O)N3CCOCC3)N(Cc3ccccc3OC)[C@@H]21 (mixture of isomers)	-1	0	-0.5
O=S(=O)(c1ccccc1)N1CC[C@@H]2[C@H](CO)Nc3ccc(Br)cc3[C@@H]21	5	4	1.0
C[C@@H](NC(=O)[C@H]1[C@H](CO)[C@H]2Cn3c(cccc3=O)[C@@H]1N2C(=O)C1CC1)c1ccccc1	11	-1	12
O=C(C[C@H]1CC[C@@H]2[C@H](COC[C@@H](O)CN2Cc2nccs2)O1)NCc1ccc(Oc2ccccc2)cc1	?	nt	nt
CCNC(=O)[C@H]1[C@H](CO)[C@H]2Cn3c(cccc3=O)[C@@H]1N2C(=O)c1ccc(F)cc1	-1	0	-0.6
C[C@@H]1CN([C@@H](C)CO)C(=O)c2c(c3ccccc3n2C)-c2ccccc2CO[C@@H]1CN(C)C	-7	-6	-0.2
C[C@H](CO)N1C[C@H](C)[C@H](CN(C)Cc2ccc3c(c2)OCO3)Oc2c(NS(=O)(=O)c3cccs3)cccc2C1=O	1	-2	3.0
CC(C)COC(=O)N(C)C[C@H]1OCc2ccccc2-c2ccccc2C(=O)N([C@H](C)CO)C[C@H]1C	6	-5	11
CO[C@H]1CC[C@@H]2CCOc3c(C#N)cccc3C(=O)N(C)C[C@@H](OC)[C@H](C)C(=O)N(C)C[C@H]1O2	0	2	-2.1
C[C@@H]1CN([C@@H](C)CO)C(=O)c2cc(-c3ccncc3)cnc2O[C@H]1CN(C)S(=O)(=O)c1ccccc1	3	4	-1.1
O=C(C[C@H]1CC[C@H]2[C@@H](COC[C@@H](O)CN2C(=O)c2cnccn2)O1)N1CCN(c2ccccc2)CC1	-1	3	-3.6

Other structures:
SMILES	DUX4 inh	DUX4 inh difference	DUX4 inh control
O=C(C[C@@H]1C[C@H]2c3cc(NC(=O)c4ccc5c(c4)OCO5)ccc3O[C@H]2[C@H](CO)O1)NCC1CC1	?	nt	nt
CNC(=O)C[C@@H]1CC[C@H]2[C@H](COc3ccc(NC(=O)Nc4ccccc4F)cc3C(=O)N2C)O1	7	16	-8.7
C[C@H](CO)N1C[C@H](C)[C@H](CN(C)S(=O)(=O)c2cccs2)OCCCC[C@H](C)Oc2ccc(N(C)C)cc2C1=O	0	0	0.4
C[C@H](CO)N1C[C@H](C)[C@@H](CN(C)C(=O)c2ccc3c(c2)OCO3)Oc2cc(/C=C/c3ccccc3)ccc2S1(=O)=O	1	1	0.0
O=C(C1CCCCC1)N1CC2(C1)[C@@H](c1ccccc1)[C@H](CO)N2Cc1nccs1	-1	-2	1.2
Cc1noc(C)c1S(=O)(=O)Nc1ccc2c(c1)C(=O)N([C@@H](C)CO)C[C@H](C)[C@@H](CN(C)C(=O)CCC(F)(F)F)OCCCC[C@H](C)O2	-1	-4	2.8
CCCN1C[C@H](C)[C@@H](OC)CN(C)C(=O)c2cc(NC(=O)Nc3cccc(F)c3)ccc2OC[C@H]1C	-9	-2	-7.1
CN(C)C(=O)[C@H]1[C@H](CO)[C@H]2Cn3c(ccc(-c4ccncc4)c3=O)[C@@H]1N2CC1CC1	3	1	2.8
CCCN(C)C[C@H]1OCCCC[C@@H](C)Oc2ccc(N(C)C)cc2C(=O)N([C@H](C)CO)C[C@H]1C	6	6	0.7
C[C@@H]1CN([C@@H](C)CO)C(=O)c2ccccc2-c2ccccc2CO[C@H]1CN(C)CC1CC1	11	-4	15
C[C@@H]1CCCCO[C@@H](CN(C)C(=O)CCCN(C)C)[C@@H](C)CN([C@@H](C)CO)C(=O)c2cc(NS(=O)(=O)c3ccc(Cl)cc3)ccc2O1	0	-3	2.3
CCCNC(=O)[C@@H]1[C@@H](CO)[C@@H]2Cn3c(ccc(-c4ccccc4F)c3=O)[C@H]1N2CCC	8	7	0.7
C[C@@H]1CCCCO[C@@H](CN(C)C(=O)c2ccccc2)[C@@H](C)CN([C@H](C)CO)C(=O)c2cc(NS(=O)(=O)c3ccc(F)cc3)ccc2O1	2	1	1.4
CC(C)[C@H]1C(=O)N[C@H](c2ccc(F)cc2)CC=CC[C@@H](C)Oc2ccccc2C(=O)N1C (mixture of isomers)	-4	2	-5.6
CCN(C[C@@H]1[C@@H](c2ccc(-c3ccccc3F)cc2)[C@@H](CO)N1C(C)=O)C(C)=O	1	0	1.5
Cc1noc(C)c1NC(=O)Nc1ccc2c(c1)C(=O)N([C@@H](C)CO)C[C@@H](C)[C@@H](CN(C)Cc1ccc3c(c1)OCO3)OCCCC[C@H](C)O2	4	1	3.4
C[C@@H](O)C#Cc1ccc([C@@H]2[C@@H](CO)N3CCCCN(C(=O)Nc4ccccc4)C[C@@H]23)cc1	-1	-5	3.3
COc1ccc2c3c([nH]c2c1)[C@@H](CO)N(C(=O)c1cccnc1)CC31CCN(Cc2cccnc2)CC1	17	9	7.5
C[C@H]1CCCCO[C@H](CN(C)C(=O)C2CCCCC2)[C@@H](C)CN([C@@H](C)CO)C(=O)c2cc(NC(=O)c3ccncc3)ccc2O1	-1	0	-1.2
N#C[C@H]1[C@@H](c2ccccc2C2=CCCC2)[C@@H](CO)N1C(=O)C1CCOCC1	9	2	6.8
CCC(=O)N1CC2(C1)CN(Cc1cccc(Cl)c1)[C@H](CO)c1c2c2ccc(OC)cc2n1C	2	5	-2.9
CCNC(=O)[C@@H]1[C@@H](CO)[C@@H]2Cn3c(ccc(C4=CCCCC4)c3=O)[C@H]1N2Cc1cocn1	-3	1	-4.5
O=C(Nc1ccc(C(F)(F)F)cc1)Nc1ccc2c(c1)[C@@H]1C[C@@H](CC(=O)N3CCc4ccccc4C3)O[C@@H](CO)[C@@H]1O2	?	nt	nt
C[C@@H]1CN([C@H](C)CO)C(=O)c2cc(NC(=O)Nc3ccc4c(c3)OCO4)ccc2O[C@@H](C)CCCCO[C@H]1CN(C)Cc1ccc(Cl)c(Cl)c1	-2	-5	3.7
CCNC(=O)[C@H]1[C@H](CO)[C@H]2Cn3c(ccc(-c4cccc(F)c4)c3=O)[C@H]2N1Cc1nccs1	-3	2	-4.7
C[C@H](CO)N1C[C@H](C)[C@H](CN(C)Cc2ccc(C(F)(F)F)cc2)Oc2ccc(NC(=O)CCCCCC(=O)Nc3ccccc3N)cc2CC1=O	1	3	-1.8
CCS(=O)(=O)N1CC(=O)N2[C@H](CO)[C@@H](c3ccc(C#Cc4ccc(F)cc4)cc3)[C@H]2C1	-4	-11	6.8
CC(C)NC(=O)Nc1ccc2c(c1)C(=O)N(C)[C@@H]1CC[C@@H](CC(=O)NCC3CCCCC3)O[C@@H]1CO2	0	-1	1.2
COc1ccc2c3c(n(C)c2c1)[C@@H](CO)N(C(=O)Nc1ccc(F)cc1)CC31CCN(C)CC1	3	6	-2.5
O=C(C[C@@H]1C[C@@H]2c3cc(NC(=O)Nc4ccc(C(F)(F)F)cc4)ccc3O[C@@H]2[C@H](CO)O1)NCc1cc(F)ccc1F	3	3	0.8
C[C@H](CO)N1C[C@H](C)[C@@H](CN(C)C(=O)CN2CCOCC2)Oc2ncc(-c3ccncc3)cc2C1=O	1	2	-0.8
OC[C@@H]1[C@H](c2ccc(-c3cccnc3)cc2)[C@@H]2CN(Cc3ccccn3)CCCCN12	8	1	7.7
O=C(C1CCOCC1)N1C[C@@H]2[C@H](c3ccccc31)[C@@H](CO)N2Cc1ccccc1	-5	-2	-3.1
C/C=C/c1ccc([C@H]2[C@@H](CO)N(C(=O)CC3CC3)C23CN(S(C)(=O)=O)C3)cc1	5	-1	6.0
COC(=O)C[C@@H]1CC[C@@H]2[C@H](COc3ccc(NC(=O)c4ccc(C(F)(F)F)cc4)cc3C(=O)N2C)O1	1	3	-1.4
COc1cccc(S(=O)(=O)N[C@H]2CC[C@H](CC(=O)NC3Cc4ccccc4C3)O[C@H]2CO)c1	5	-1	6.5
CN1[C@@H]2CN(C(=O)C3CCCCC3)c3ccccc3[C@@H]2[C@@H]1CO	-1	-2	1.5
CO[C@H](CN(C)Cc1nccs1)[C@@H](C)CN([C@H](C)CO)S(=O)(=O)c1ccc(F)cc1	0	-1	0.8
C[C@H]1CN([C@@H](C)CO)C(=O)c2ccccc2-c2ccccc2CO[C@H]1CN(C)Cc1ccc(C(F)(F)F)cc1	?	nt	nt
O=C(O)[C@@H]1[C@@H](CO)[C@@H]2Cn3c(ccc(/C=C/c4ccccc4)c3=O)[C@@H]2N1Cc1ccc2c(c1)OCO2	?	nt	nt
C[C@@H]1COCc2cn(nn2)CCCC(=O)N1	3	4	-0.5
O=C(C[C@@H]1CC[C@@H]2[C@H](COC[C@H](O)CN2S(=O)(=O)c2ccccc2)O1)Nc1ccccc1	13	9	4.1
CCS(=O)(=O)N1[C@H](CO)[C@H](c2ccccc2)[C@@H]1CN(C)Cc1ccccn1	-4	1	-4.5
O=C(NCCc1ccccc1)[C@H]1[C@H](CO)[C@H]2Cn3c(cccc3=O)[C@@H]1N2CC1CC1	-7	-10	3.3
CCNC(=O)C[C@H]1CC[C@@H]2[C@H](COC[C@@H](O)CN2C(=O)c2cccnc2)O1	5	-2	6.6
CC=Cc1ccc2n(c1=O)C[C@@H]1[C@@H](CO)[C@H](C(=O)Nc3nccs3)N(C(=O)CC)[C@H]21 (mixture of isomers)	2	9	-7.1
COCC#Cc1ccc([C@@H]2[C@@H](CO)N3C(=O)CN(C(=O)Nc4ccccc4F)C[C@@H]23)cc1	16	7	9.5
C[C@@H](O)C#Cc1ccc([C@@H]2[C@H]3CN(C(=O)c4ccc5c(c4)OCO5)CCCCN3[C@H]2CO)cc1	2	-8	10
O=C(C[C@H]1CC[C@@H]2[C@H](COC[C@H](O)CN2C(=O)c2ccc(F)cc2)O1)NC1Cc2ccccc2C1	6	4	1.8
O=C(CC1CC1)Nc1ccc2c(c1)[C@@H]1C[C@H](CC(=O)NC3CCCCC3)O[C@@H](CO)[C@@H]1O2	9	4	4.4
COC(=O)C[C@H]1CC[C@H]2[C@@H](COc3ccc(NC(=O)Nc4cccc(C#N)c4)cc3C(=O)N2C)O1	?	nt	nt
CCCC#Cc1ccc([C@H]2[C@@H](C#N)N(C(=O)C3CCCC3)[C@H]2CO)cc1	-5	-1	-3.9
Cn1cnc(S(=O)(=O)N2CCCCN3[C@@H](CO)[C@@H](c4ccc(-c5ccccc5F)cc4)[C@@H]3C2)c1	14	8	5.6
O=C(O)C[C@H]1CC[C@@H](NC(=O)c2ccccc2F)[C@@H](CO)O1	1	-1	2.2
